# Screens (PubChem BioAssay)
# Cruzain noTriton: inhibitors of Trypanosoma cruzi cruzain without detergent | P25779 | purified cruzain, Z-FR-AMC fluorescence, no detergent | Potency, µM, for inactives: max response, negative = inhibition, most hits filed as inhibitors | actives 2.3% (n = 200,000) | AID 1476;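 note: plate controls were enzyme without inhibitor for no effect and buffer without enzyme for full effect; nearly all actives have a fitted effect of over 40% in size; top concentration of the series not given in the record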
# Target sequence (P25779 123-467 limits assumed): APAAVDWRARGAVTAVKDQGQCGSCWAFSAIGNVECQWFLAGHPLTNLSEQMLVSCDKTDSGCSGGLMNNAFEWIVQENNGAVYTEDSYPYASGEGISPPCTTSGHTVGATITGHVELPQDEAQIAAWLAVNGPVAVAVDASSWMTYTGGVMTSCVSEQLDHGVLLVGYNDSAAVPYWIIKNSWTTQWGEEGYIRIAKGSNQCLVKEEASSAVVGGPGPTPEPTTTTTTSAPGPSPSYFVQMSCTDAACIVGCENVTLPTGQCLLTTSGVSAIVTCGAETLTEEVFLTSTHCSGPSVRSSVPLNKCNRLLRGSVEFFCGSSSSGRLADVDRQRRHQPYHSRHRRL
#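 Purified cruzain at 1.5 nM, pre-incubated 15 min with compound at room temperature in 100 mM sodium acetate pH 5.5, 5 mM DTT, 0.00005% Triton X-100. Reaction started with 2 uM Z-FR-AMC; AMC fluorescence increase over 60 s gives rate.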
# Cruzain inh Det: cruzain (T. cruzi) inhibition with detergent; P25779; purified cruzain, Z-FR-AMC fluorescence, 0.01% Triton; Potency, µM, for the others: max response, negative = inhibition, hits mostly inhibitors; actives 0.43% (n = 200,000); AID 1478;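 note: plate controls were neutral wells for no effect and buffer without enzyme for full effect; nearly all actives have a fitted effect of over 40% in size; top concentration of the series not given in the record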
#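 Z-FR-AMC hydrolysis (2 uM substrate) by cruzain (1.5 nM) monitored kinetically at ex 360/em 450 nm after 15 min room-temperature compound exposure; 0.01% Triton X-100, pH 5.5, 5 mM DTT.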
# NS1 function inh: blocks influenza NS1 protein function. S. cerevisiae slowed by influenza A NS1, growth recovery by OD600. Potency, µM (series often up to 46.1 µM), without a hit: at the top dose activity, positive = more growth. actives 0.4% (n = 270,000); active means well fitted rising curve with a large enough effect; inconclusive means small, poorly fitted or top-dose-only effect; inactive means no such curve, though single readings can be large or run the other way; note: nearly all actives have a fitted effect of over 50% in size
#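 Compounds were scored for reversing the slow growth caused by influenza A NS1 in S. cerevisiae, measured by optical density at 600 nm. Assay medium contained 2% galactose at pH 6.0; NS1-free yeast of the same strain were the positive control.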
# SARS PLpro yeast: inhibitors of SARS-CoV papain-like protease in yeast | S. cerevisiae expressing SARS-CoV PLpro, growth rescue; control for the full effect not named in the record | Potency, µM (titrated, usually from 32.9 µM), without a hit: at the top dose activity, positive = growth rescue | actives 0.19% (n = 330,000) | AID 485353; active means well fitted rising curve with a large enough effect; inconclusive means small, poorly fitted or top-dose-only effect; inactive means no such curve, though single readings can be large or run the other way; note: 0% is about no effect; nearly all actives have a fitted effect of over 55% in size; growth read by luminescence after 48 h
# RE007 growth inh: less growth of the S. pombe RE007 Vpr strain. actives 0.21% (n = 360,000). Potency, µM (doses to about 92.2 µM), inactives show at the top dose activity change, negative = less growth. S. pombe RE007 Vpr strain, BacTiter-Glo ATP luminescence, 24 h; control for the full effect not named in the record. AID 651644; active = well fitted falling curve with a large enough effect; inconclusive = small, poorly fitted or top-dose-only effect; inactive = no such curve, though single readings can be large or run the other way;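 note: % is set by controls: 0 for no effect and ±100 for the full control effect; nearly all actives have a fitted effect of over 50% in size; the assay follows cell death caused by Vpr and the record does not say whether a fall means rescue or toxicity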
#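 Fission yeast RE007 carrying one integrated HIV-1 vpr copy, seeded at OD 0.01 in PMG+AL medium with 23 nL pinned compound. Grown 24 h at 30 degrees; viability read by BacTiter-Glo luminescence after 5 min.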
# LASV entry inh: blocks Lassa virus binding to or entry into cells; Lassa virus pseudotype entry inhibition, cell reporter; control for the full effect not named in the record; Potency, µM (series often up to 37.9 µM), inactives show at the highest dose activity change, negative = inhibition, hits mostly inhibitors; actives 1.2% (n = 300,000); active means well fitted inhibition curve with a large enough effect; inconclusive means small, poorly fitted or top-dose-only effect, or effect the other way; inactive means flat fitted curve, though single readings scatter; tested in HEK293 cells; note: % is set by controls: 0 for no effect and ±100 for the full control effect; nearly all actives have a fitted effect of over 50% in size; luciferase read-out
# MARV entry inh: inhibitors of Marburg virus binding or cell entry | AID 540276 | actives 1.8% (n = 300,000) | Potency, µM (series often up to 37.8 µM), without a hit: at the highest dose activity change, negative = inhibition, most hits filed as inhibitors | Marburg virus pseudotyped entry inhibition, cell reporter; control for the full effect not named in the record; about a third of the inactives were read at about 46 µM; active = well fitted inhibition curve with a large enough effect; inconclusive = small, poorly fitted or top-dose-only effect, or effect the other way; inactive = flat fitted curve, though single readings scatter; tested in HEK293 cells; about a fifth of its hits are not listed in these tables; note: % is set by controls: 0 for no effect and ±100 for the full control effect; luciferase read-out
# StopGo reporter: FMDV 2A StopGo reporter, luciferase signal. actives 1.2% (n = 410,000). Potency, µM (top dose mostly 57.9 µM), for inactives: at the top dose signal change, negative = less light. human cells with a luciferase reporter of 2A StopGo recoding; control for the full effect not named in the record; active = well fitted falling curve with a large enough effect; inconclusive = small, poorly fitted or top-dose-only effect; inactive = no such curve, though single readings can be large or run the other way; tested in HEK293T cells; note: % is set by controls: 0 for no effect and ±100 for the full control effect; nearly all actives have a fitted effect of over 45% in size; luciferase light after 4 h
# Numbers without * were called inactive; ? = inconclusive; · = not tested or not shown; & = joins results of further samples; [ ] = dose if it differs, or a comment. Unless noted, calls come from the whole dose curve; as a rule, active = well fitted curve in the direction sought with a large enough effect; inconclusive = small, poorly fitted or top-dose-only effect, or another doubt; inactive = no such curve, though single readings can be large; an effect the other way counts as inactive or inconclusive. Potency is the fitted concentration of half-maximal effect.
molecule,RE007 growth inh,StopGo reporter,LASV entry inh,MARV entry inh,SARS PLpro yeast,NS1 function inh,Cruzain inh Det,Cruzain noTriton
O=C(Cn1c(-c2cncs2)nc2ccccc21)NCc1ccccc1,3%,-14%,0%,8%,-5%,1%,1.6%,11%
CC(C)=CCN1CCN(Cc2ccc(N3CCNC3=O)cc2)CC1CCO (stereo unspecified),-10%,6%,·,·,9%,2%,·,·
O=C(Nc1ncc2c(n1)CC(c1ccco1)CC2=O)c1ccc(Cl)cc1 (stereo unspecified),9%,-9%,7%,7%,-5%,-8%,-4.8%,-1%
O=C(NC(=S)N1CCCCC1c1cccnc1)c1ccc(Br)cc1 (stereo unspecified),4%,-2%,·,·,1%,-10%,·,·
CCOc1cc(C(=O)NCc2ccc(-c3nc4ccccc4o3)cc2)cc(OCC)c1OCC,-2%,0%,-25%,?,4%,-11%,1.4%,-10%
O=C(NCCCCc1ccccc1)c1nn(-c2ccccc2)nc1CO,·,?,-18%[46.1 µM],-9%[46.1 µM],·,·,-4.7%,13%
Cn1c(O)c(C=NC2C(=O)C3(C)CCC2C3(C)C)c(=O)n(C)c1=O (stereo unspecified),24%,-24%,0%,9%,23%,8%,0.5%,-13%
CCOC(=O)C1CCN(C(=O)c2ccccc2NC(=O)c2nsc3ccccc23)CC1,·,0%,?,·,·,·,-2.6%,1%
CCN(Cc1ccccc1)C(=O)CCS(=O)(=O)c1cc2c(cc1Cl)NC(=O)CO2,-12%,0%&-24%,-8%[46.1 µM],·,-1%,2%,-2.2%,13%
COC(=O)c1nn(-c2ccccc2)ccc1=O,0%,-15%,-1%,?,4%,-7%,-1.3%,10%
O=C(OCc1ccccc1)c1cccc(-c2nnc(-c3ccccc3)o2)c1,8%,55%[activator],-1%,28%,-4%,?,-0.6%,12%
Cn1nc(SCc2ccccc2)c(=O)n(C(c2ccccc2)c2ccccc2)c1=O,0%,-12%,11%,-2%,·,·,·,·
CC(=O)c1ccc(S(=O)(=O)NC2CCCCCCC2)cc1,14%,43%,?,?,-20%,-15%,·,·
CC(C)CC(NC(N)=O)C(=O)OCC(=O)NC(=O)NC1CCCC1 (stereo unspecified),0%,24%,?,1%,-2%,2%,-5.6%,3%
CCOC(=O)N1CCN(C(=O)C(=O)Nc2ccc3nc4n(c(=O)c3c2)CCCCC4)CC1,1%,-3%,·,0%,-2%,9%,2.4%,-2%
COC(=O)C(C(=O)OC)C(C)C(C(=O)OC)C(=O)OC,-9%,-20%,-3%,-6%,0%,11%,-2.5%,-9%
COc1ccc(Br)cc1/C=N/Nc1ccc(S(=O)(=O)Nc2ccccc2C(=O)O)cc1[N+](=O)[O-],1%,-15%,-3%,4%,·,·,·,·
COc1cccc(NC(=O)Nc2cc(C)ccc2OC)c1,?,-2%,3%[46.1 µM],?,-3%,2%,·,·
O=C(Cn1ncc2c([nH]c3ccccc32)c1=O)N1CCN(c2ccccc2F)CC1,6%,-8%,·,·,4%,3%,·,·
Cn1c(-c2ccc3ccccc3n2)nc2cnccc21,-30%,18%,?,-16%,-9%,-29%,-1.9%,-2%
O=C(c1ccco1)N1CCCSC1=Nc1ccccc1,-1%,-7%,-1%,-2%,-2%,1%,2.0%,-12%
COc1ccc(CNS(=O)(=O)c2ccc(-c3cc(C)no3)cc2)cc1,0%,-12%,·,·,2%,-8%,·,·
CCn1c(SCC(=O)Nc2sc(C)c(C)c2C#N)nnc1C1CC1,6%,-5%,·,·,1%,-5%,·,·
CCc1nnc(NC(=O)c2ccc(-c3ccccc3Cl)o2)s1,-11%[3.69 µM],21%,0%,?,14%,2%,3.0%,-4%
CCOC(=O)N1CCN(S(=O)(=O)c2cc(Cl)ccc2Cl)CC1,-2%,-26%,-1%,-7%[46.1 µM],?,-3%,-1.4%,7%

# Full records as entered above. Order of screens: RE007 growth inh	StopGo reporter	LASV entry inh	MARV entry inh	SARS PLpro yeast	NS1 function inh	Cruzain inh Det	Cruzain noTriton
# Cn1c(O)c(C=NC2C(=O)C3(C)CCC2C3(C)C)c(=O)n(C)c1=O (stereo unspecified) across the screens: 24%	-24%	0%	9%	23%	8%	0.5%	-13%
# Cn1c(-c2ccc3ccccc3n2)nc2cnccc21 across the screens: -30%	18%	?	-16%	-9%	-29%	-1.9%	-2%

# Next part.
molecule,RE007 growth inh,StopGo reporter,LASV entry inh,MARV entry inh,SARS PLpro yeast,NS1 function inh,Cruzain inh Det,Cruzain noTriton
Cc1cc(=O)n(CC(=O)NC(C)c2ccccc2)c2c1c(C)nn2C (stereo unspecified),·,0%,-9%[46.1 µM],·,·,·,-1.5%,-5%
O=C(CNC(=O)c1cccs1)NCC(=O)OCC(=O)c1ccccc1,0%,-6%,17%,20%[46.1 µM],0%,5%,·,·
CCOc1cc(C)c(Cl)cc1S(=O)(=O)n1ccnc1,0%,-2%,-17%[46.1 µM],?,-3%,·,·,·
c1ccc(-c2nnc(CSc3ccc4c(c3)OCCO4)o2)cc1,-24%,14%,-11%[46.1 µM],?,-2%,·,·,·
Cc1c(/C=N/Nc2ccc([N+](=O)[O-])cn2)c2ccccc2n1Cc1ccccc1,-3%,?,·,·,-1%,5%,·,·
Cc1ccc(/C=N/NC(=O)c2nnn(-c3nonc3N)c2CSc2ccccc2)o1,4%,-27%,-16%[46.1 µM],?,-4%,15%,·,·
O=C(NCCN1C(=O)S/C(=C\c2cccnc2)C1=O)c1ccc([N+](=O)[O-])s1,12%,-12%,13%,?,·,·,·,·
COc1ccc(NC(=O)N2CCCC2C(=O)Nc2ccc(C)cc2)cc1 (stereo unspecified),15%,4%,-2%,?,-1%,4%,-0.4%,-3%
CCN(CC)C(=O)Cn1cc(C(=O)C(=O)NCCc2ccccc2)c2ccccc21,1%,-4%,9%[46.1 µM],-8%[46.1 µM],2%,-5%,·,·
COc1cc([N+](=O)[O-])ccc1NC(=O)NNC(=O)C(C)Oc1ccc(F)cc1F (stereo unspecified),-21%,-26%,-16%,-25%,3%,1%,·,·
CCOC(=O)CCNC(=O)N1CCN(S(=O)(=O)c2ccc3c(ccn3C)c2)CC1,·,-9%,8%[46.1 µM],·,·,·,0.2%,-2%
Cc1cc(C)c(NS(=O)(=O)c2ccc(-c3cnc(C4CC4)o3)cc2)c(C)c1,·,-8%,?,·,·,·,-9.3%,-13%
COc1ccc(C(=O)OC(C)CN2CCN(C)CC2)cc1OC (stereo unspecified),-4%,6%,3%,15%,4%,-8%,-2.4%,-9%
COc1ccc(NC(=O)c2c(SC)nsc2SC)cc1,20%,-20%,-1%,?,-11%,-1%,-4.1%,-12%
CCOc1ccc(Oc2ccc(S(=O)(=O)N3CCOCC3)cc2NC(=O)CCNC(C)=O)cc1,14%,-9%,4%,-3%[46.1 µM],0%,·,·,·
Cc1ccc(Cl)cc1NC(=O)CCc1c(C)nc2c3cccnc3nn2c1C,·,-14%,-12%[46.1 µM],1%[46.1 µM],·,·,-3.0%,-3%
O=C1Cc2ccccc2C(=O)N1Nc1ccccc1,65%,-21%,10%,?,·,·,·,·
O=C(Nc1ccccc1C(F)(F)F)N1CCN(C(c2ccccc2)c2ccccc2)CC1,13%,-11%,-16%,?,1%,0%,-2.8%,?
Cc1sc2nc(SCC(=O)NCc3ccco3)n(C)c(=O)c2c1C,17%,?,9%,-16%,7%,-3%,-1.3%,8%
Cc1ccc(-n2nc(C)cc2NC(=O)COc2cc(C)cc3oc(=O)c4c(c23)CCC4)cc1,-3%,-21%,-17%,?,6%,4%,1.2%,?
COc1cc(CNc2ccc3[nH]c(=O)[nH]c3c2)cc(Cl)c1OCc1ccc(F)cc1,·,?,-1%[46.1 µM],?,·,·,-4.3%,?
O=C(CCCC(=O)NCc1ccccc1)NCc1ccccc1,·,-22%,-1%,13%,-18%,4%,-0.6%,9%
CCN(CC)CCCNC(=S)N(Cc1ccco1)Cc1cc2cc3c(cc2[nH]c1=O)OCCO3,·,·,-1%,-5%,-5%,3%,-5.1%,-3%
CCOc1ccc(CCNC(=O)CCc2c(C)nc3cc(-c4ccccc4OC)nn3c2C)cc1,·,0%,?,?,·,·,-4.0%,?
CN(Cc1ccc(C(F)(F)F)cc1)C(=O)c1ccc2ccccc2n1,9%,-19%,0%,10%,-3%,6%,·,·
CC(=O)Nc1ccc(Sc2ccccc2C(=O)O)c(C(=O)O)c1,11%,5%,19%[46.1 µM],?,1%,-2%,·,·
O=C(CSc1nnc(-c2ccc(O)cc2)n1Cc1ccco1)c1ccccc1,3%,-18%,-17%,-3%,7%,3%,-6.0%,4%
Cc1cc(C(=O)NCC(=O)OCC(=O)N2CCCCCC2)ccc1[N+](=O)[O-],-7%,1%,2%,9%,16%,-10%,14µM*,16µM*
CC(Oc1ccccc1)C(=O)OCC(=O)Nc1ccc2c(c1)OCO2 (stereo unspecified),0%,4%,-2%[46.1 µM],9%[46.1 µM],-8%,·,·,·
CN(C)S(=O)(=O)c1cc(NC(=O)CN2CCN(c3ccccc3O)CC2)ccc1Cl,3%,0%,0.56µM*,-1%,-4%,·,·,·

# Exported with values under each structure: 5 of the compounds above.
# Under each structure: RE007 growth inh | StopGo reporter | LASV entry inh | MARV entry inh | SARS PLpro yeast | NS1 function inh | Cruzain inh Det | Cruzain noTriton
> CC(=O)Nc1ccc(Sc2ccccc2C(=O)O)c(C(=O)O)c1
→ 11% | 5% | 19%[46.1 µM] | ? | 1% | -2% | · | ·
> O=C(CSc1nnc(-c2ccc(O)cc2)n1Cc1ccco1)c1ccccc1
→ 3% | -18% | -17% | -3% | 7% | 3% | -6.0% | 4%
> Cc1cc(C(=O)NCC(=O)OCC(=O)N2CCCCCC2)ccc1[N+](=O)[O-]
→ -7% | 1% | 2% | 9% | 16% | -10% | 14µM* | 16µM*
> CC(Oc1ccccc1)C(=O)OCC(=O)Nc1ccc2c(c1)OCO2 (stereo unspecified)
→ 0% | 4% | -2%[46.1 µM] | 9%[46.1 µM] | -8% | · | · | ·
> CN(C)S(=O)(=O)c1cc(NC(=O)CN2CCN(c3ccccc3O)CC2)ccc1Cl
→ 3% | 0% | 0.56µM* | -1% | -4% | · | · | ·
